CHT PAM: allosterically activates the human high affinity choline transporter | CHT-expressing cells, membrane potential dye, choline EC20; hits give high values; LV-AA mutant CHT in HEK293 cells | 310,000 compounds, 0.49% hits | AID 488977 | B-score at 10 µM;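 active means initial fluorescence not abnormally high and integrated response B-score, plate-corrected, over 3 SD above library mean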
Target sequence (Q9GZV3 whole entry, looked up): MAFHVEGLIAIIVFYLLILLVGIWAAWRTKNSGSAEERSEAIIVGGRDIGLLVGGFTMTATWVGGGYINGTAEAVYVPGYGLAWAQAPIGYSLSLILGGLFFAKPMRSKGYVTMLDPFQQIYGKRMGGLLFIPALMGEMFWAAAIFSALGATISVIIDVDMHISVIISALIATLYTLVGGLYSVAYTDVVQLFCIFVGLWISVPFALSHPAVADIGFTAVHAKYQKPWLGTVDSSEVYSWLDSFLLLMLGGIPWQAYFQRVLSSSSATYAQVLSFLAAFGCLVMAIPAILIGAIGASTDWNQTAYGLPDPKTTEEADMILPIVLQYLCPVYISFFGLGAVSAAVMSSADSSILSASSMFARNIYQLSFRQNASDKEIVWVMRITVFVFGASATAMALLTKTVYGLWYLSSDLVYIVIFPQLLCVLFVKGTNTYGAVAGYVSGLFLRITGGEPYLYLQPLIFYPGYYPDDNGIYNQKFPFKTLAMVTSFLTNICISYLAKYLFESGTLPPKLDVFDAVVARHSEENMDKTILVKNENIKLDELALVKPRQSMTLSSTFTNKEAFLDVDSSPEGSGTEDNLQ
Calls only. Some of the compounds tested, and most or all hits are left out here.

Screening Cc1cccc(N2CCN(S(=O)(=O)c3c(C(=O)N4CCCCC4)c(C)n(C)c3C)CC2)c1C returned CHT PAM inactive.
O=C(Nc1ccc(F)cc1)c1cc2cc(Cl)ccc2[nH]1 was read as CHT PAM inactive.
`Cc1ccc(NC2(C#N)C(=O)Nc3ccccc32)cc1` (stereo not drawn) gave CHT PAM inactive.
`CN1CCN(C(=O)/C=C/c2ccc(C#N)cc2)CC1` gave CHT PAM inactive.
Cc1cccc2c1CC(C)(C)NC2=C(C#N)C#N was read as CHT PAM inactive.
Screening O=C1CC(=O)C(n2cncn2)C(c2c(F)cccc2Cl)C1 (stereo not drawn) returned CHT PAM inactive.
For CC(=O)C1(C)OC(N)=C(C#N)C(c2ccccc2)C1(C#N)C#N (stereo not drawn) the results were CHT PAM inactive.
`O=C(NC(=S)NCC1CCCO1)c1cccs1` (stereo not drawn) gave CHT PAM inactive.
`O=C(N/N=C/c1sc(=O)[nH]c1-[n+]1ccccc1)c1ccccc1[O-]` gave CHT PAM inactive.
Screening O=[N+]([O-])c1cc(-c2nc3nc4ccccc4nc3n2CCc2ccccc2)cc([N+](=O)[O-])c1 returned CHT PAM inactive.
`CCOc1ccccc1N1C(=O)c2cccnc2C1=O` gave CHT PAM inactive.
`O=C(NC1CCCc2ccccc21)c1ccccc1OC(F)F` (stereo not drawn) gave CHT PAM inactive.
CC1CCc2ccccc2N1C(=O)c1cccs1 (stereo not drawn) was read as CHT PAM inactive.
For O=C1CCCCN1CC(=O)N1CCCC(Nc2ccc(F)c(F)c2)C1 (stereo not drawn) the results were CHT PAM inactive.
CCN(CC(=O)NCc1ccc(F)cc1)C(=O)/C=C/c1ccc(OC)c(S(=O)(=O)NC(C)C)c1 was read as CHT PAM inactive.
Screening CCS(=O)(=O)Nc1ccc2c(c1)OCO2 returned CHT PAM inactive.
COc1ccc(-c2cccc(NS(=O)(=O)c3cc([N+](=O)[O-])ccc3Cl)c2)nn1 was read as CHT PAM inactive.
For COc1ccc(CCN(Cc2cc3cccc(C)c3[nH]c2=O)C(=O)NC2CCCCC2)cc1OC the results were CHT PAM inactive.
Screening C=CCOc1nc2c(c(=O)n(C)c(=O)n2C)n1Cc1c(Cl)cccc1Cl returned CHT PAM inactive.
Screening CCc1ccccc1NC(=O)CC(NCc1ccccc1)C(=O)O (stereo not drawn) returned CHT PAM inactive.
COC(=O)[C@@H]1C[C@H]2CC[C@H](O)C[C@H]2N1Cc1ccccc1OS(=O)(=O)c1ccc(C)cc1 was read as CHT PAM inactive.
For CN(Cc1ccco1)C(=O)C1CCN(c2nnc(-n3cccc3)s2)CC1 the results were CHT PAM inactive.
CCNc1nc(NC(C)C)nc(N2CC(=O)N(CC(=O)OCC)C2=N)n1 was read as CHT PAM inactive.
For COc1cccc(NC(=O)c2ccc(-c3ccc([N+](=O)[O-])cc3)o2)c1 the results were CHT PAM inactive.
Cc1cc(C)c2nc(N3CCC(C(=O)NCc4ccccn4)CC3)sc2c1 was read as CHT PAM inactive.
O=C(CCCSc1nc2ccccc2c(=O)[nH]1)c1ccc(F)cc1 was read as CHT PAM inactive.
For COc1ccc2c(=O)c3c(=O)n(Cc4ccco4)c(-c4cc(OC)c(OC)c(OC)c4)nc3oc2c1 the results were CHT PAM inactive.
O=C(CNC(=O)c1ccc(OC(F)F)cc1)NC1CCCc2ccccc21 (stereo not drawn) was read as CHT PAM inactive.
For COc1ccc(NC(=S)/N=C(\N)Nc2nc(C)c3ccc(C)cc3n2)cc1 the results were CHT PAM inactive.
CN(C)NC(=S)Nc1ccc(Cl)cc1 was read as CHT PAM inactive.

Copied from the results shown, 26 compounds:
Screening Cc1cccc(N2CCN(S(=O)(=O)c3c(C(=O)N4CCCCC4)c(C)n(C)c3C)CC2)c1C returned CHT PAM inactive.
O=C(Nc1ccc(F)cc1)c1cc2cc(Cl)ccc2[nH]1 was read as CHT PAM inactive.
`Cc1ccc(NC2(C#N)C(=O)Nc3ccccc32)cc1` (stereo not drawn) gave CHT PAM inactive.
`CN1CCN(C(=O)/C=C/c2ccc(C#N)cc2)CC1` gave CHT PAM inactive.
Cc1cccc2c1CC(C)(C)NC2=C(C#N)C#N was read as CHT PAM inactive.
Screening O=C1CC(=O)C(n2cncn2)C(c2c(F)cccc2Cl)C1 (stereo not drawn) returned CHT PAM inactive.
For CC(=O)C1(C)OC(N)=C(C#N)C(c2ccccc2)C1(C#N)C#N (stereo not drawn) the results were CHT PAM inactive.
`O=C(NC(=S)NCC1CCCO1)c1cccs1` (stereo not drawn) gave CHT PAM inactive.
`O=C(N/N=C/c1sc(=O)[nH]c1-[n+]1ccccc1)c1ccccc1[O-]` gave CHT PAM inactive.
Screening O=[N+]([O-])c1cc(-c2nc3nc4ccccc4nc3n2CCc2ccccc2)cc([N+](=O)[O-])c1 returned CHT PAM inactive.
`CCOc1ccccc1N1C(=O)c2cccnc2C1=O` gave CHT PAM inactive.
`O=C(NC1CCCc2ccccc21)c1ccccc1OC(F)F` (stereo not drawn) gave CHT PAM inactive.
CC1CCc2ccccc2N1C(=O)c1cccs1 (stereo not drawn) was read as CHT PAM inactive.
For O=C1CCCCN1CC(=O)N1CCCC(Nc2ccc(F)c(F)c2)C1 (stereo not drawn) the results were CHT PAM inactive.
CCN(CC(=O)NCc1ccc(F)cc1)C(=O)/C=C/c1ccc(OC)c(S(=O)(=O)NC(C)C)c1 was read as CHT PAM inactive.
Screening CCS(=O)(=O)Nc1ccc2c(c1)OCO2 returned CHT PAM inactive.
COc1ccc(-c2cccc(NS(=O)(=O)c3cc([N+](=O)[O-])ccc3Cl)c2)nn1 was read as CHT PAM inactive.
For COc1ccc(CCN(Cc2cc3cccc(C)c3[nH]c2=O)C(=O)NC2CCCCC2)cc1OC the results were CHT PAM inactive.
Screening C=CCOc1nc2c(c(=O)n(C)c(=O)n2C)n1Cc1c(Cl)cccc1Cl returned CHT PAM inactive.
Screening CCc1ccccc1NC(=O)CC(NCc1ccccc1)C(=O)O (stereo not drawn) returned CHT PAM inactive.
COC(=O)[C@@H]1C[C@H]2CC[C@H](O)C[C@H]2N1Cc1ccccc1OS(=O)(=O)c1ccc(C)cc1 was read as CHT PAM inactive.
For CN(Cc1ccco1)C(=O)C1CCN(c2nnc(-n3cccc3)s2)CC1 the results were CHT PAM inactive.
CCNc1nc(NC(C)C)nc(N2CC(=O)N(CC(=O)OCC)C2=N)n1 was read as CHT PAM inactive.
For COc1cccc(NC(=O)c2ccc(-c3ccc([N+](=O)[O-])cc3)o2)c1 the results were CHT PAM inactive.
Cc1cc(C)c2nc(N3CCC(C(=O)NCc4ccccn4)CC3)sc2c1 was read as CHT PAM inactive.
O=C(CCCSc1nc2ccccc2c(=O)[nH]1)c1ccc(F)cc1 was read as CHT PAM inactive.

Additional results follow.
Screening Cc1nn(-c2ccccc2)c(C)c1NC(=O)COC(=O)Cc1ccccc1F returned CHT PAM inactive.
`COc1ccc(-n2c(=S)[nH]c3sc4c(c3c2=O)CCN(C)C4)cc1` gave CHT PAM inactive.
For CCCCCN(C(=O)CCC(=O)OCCOc1ccc(OCC)cc1)c1c(N)n(CCCC)c(=O)[nH]c1=O the results were CHT PAM inactive.
For Cc1nc(CC(=O)Nc2nc(C(C)(C)C)cs2)cs1 the results were CHT PAM inactive.
Screening CS(=O)(=O)n1nc(-c2ccccc2)nc1NCc1ccco1 returned CHT PAM inactive.
COc1cc(OC)c(C(=O)CCC(=O)O)cc1OC was read as CHT PAM inactive.
O=C(c1ccc(Cl)s1)N1CCc2ccccc21 was read as CHT PAM inactive.
Screening O=c1c2ccccc2[nH]c(=S)n1-c1cccc(S(=O)(=O)N2CCCC2)c1 returned CHT PAM inactive.
CCOCCc1nn2c(=O)cc(CSCC(=O)Nc3cccc(C)c3C)nc2s1 was read as CHT PAM inactive.
O=C(COc1ccc2c(-c3ccccc3)cc(=O)oc2c1)Nc1ccc(CN2CCOCC2)cc1 was read as CHT PAM inactive.
Screening CCOC(=O)c1c(NC(=O)COc2cccc3c2CCN(Cc2ccc(F)cc2)C3=O)sc2c1CCC2 returned CHT PAM inactive.
For CCCNC(=O)N1CCC(c2ccc3c(c2)OCO3)CC1 the results were CHT PAM inactive.
CCOc1cc(/C=N/NC(=O)CNc2ccc(C)cc2)ccc1OC(=O)c1ccccc1 was read as CHT PAM inactive.
O=C(/C=C/c1cccs1)Nc1nc(-c2ccccc2)cs1 was read as CHT PAM inactive.
For Brc1ccccc1-n1nnc(-c2cccnc2)n1 the results were CHT PAM inactive.
`Cc1ccc(NC(=O)c2ccc(NCCN)c([N+](=O)[O-])c2)cc1` gave CHT PAM inactive.
Screening CC1(c2nnc(-c3ccc(F)cc3)o2)CC(c2ccc([N+](=O)[O-])cc2)=NO1 (stereo not drawn) returned CHT PAM inactive.
`CN(C)CCCN(C(=O)c1ccc(S(=O)(=O)N2CCCCCC2)cc1)c1nc2c(F)cccc2s1` gave CHT PAM inactive.
For CC(C)CN(C(=O)CCC(=O)OCC(=O)NCCc1ccccc1)c1c(N)n(CC(C)C)c(=O)[nH]c1=O the results were CHT PAM inactive.
Cc1ccccc1CN1CCN(S(=O)(=O)c2cccs2)CC1 was read as CHT PAM inactive.
For CCOC(=O)N1CCC(NC(=O)CCc2nc(-c3ccc(C)cc3)no2)CC1 the results were CHT PAM inactive.
For Cc1cc(C)nc(SCc2ccc(C(=O)N/N=C3\CCCC(=O)C3)cc2)n1 the results were CHT PAM inactive.
Screening Cc1csc(CN(C)C(=O)CC2C(=O)NCCN2Cc2ccc(-c3ccccc3)cc2)n1 (stereo not drawn) returned CHT PAM inactive.
Screening C#CCSc1nsc(SCC#C)c1C#N returned CHT PAM inactive.
Screening O=C(Nc1cc2c(oc1=O)CCCC2=O)c1ccccc1 returned CHT PAM inactive.
`O=C(Nc1cccc2nsnc12)c1ccc2c(c1)OCCO2` gave CHT PAM inactive.
For CCc1cc2ccccc2nc1Cl the results were CHT PAM inactive.
For O=C(CN1CCN(S(=O)(=O)c2ccccc2F)CC1)NC1CCCC1 the results were CHT PAM inactive.
For COc1cccc(CNCc2ccc(SC)cc2)c1OC the results were CHT PAM inactive.
O=C(/C=C/c1ccccc1)Nc1ccc2c(c1)OCCO2 was read as CHT PAM inactive.

Overlap with the part before: 3 entries, followed by the next part.
For O=C(CN1CCN(S(=O)(=O)c2ccccc2F)CC1)NC1CCCC1 the results were CHT PAM inactive.
For COc1cccc(CNCc2ccc(SC)cc2)c1OC the results were CHT PAM inactive.
O=C(/C=C/c1ccccc1)Nc1ccc2c(c1)OCCO2 was read as CHT PAM inactive.
O=C(Nc1ccccc1)c1ccccc1NC(=O)C1CCCCC1 was read as CHT PAM inactive.
`Cc1ccccc1SCC(=O)Nc1ccc(N2CCOCC2)cc1` gave CHT PAM inactive.
FC(F)(F)c1cc(CCN2C(=S)NC[C@@H]2CC2CCCCC2)cc(C(F)(F)F)c1 was read as CHT PAM inactive.
For COc1ccc(NC(=O)c2cnc(NS(=O)(=O)c3ccccc3)nc2)cc1 the results were CHT PAM inactive.
Screening COc1ccccc1N1CC(C(=O)Nc2nnc(SCC(=O)NCC3CCCO3)s2)CC1=O (stereo not drawn) returned CHT PAM inactive.
`COc1ccc(NC(=O)c2cc(-c3ccc4c(c3)OCO4)on2)cc1` gave CHT PAM inactive.
CCCC(=O)Nc1ccc(C(=O)N/N=C/c2ccc([N+](=O)[O-])o2)cc1 was read as CHT PAM inactive.
`O=C1CCC(C(=O)OC(C(=O)c2c[nH]c3ccccc23)c2ccccc2)=NN1` (stereo not drawn) gave CHT PAM inactive.
Screening CC(=O)NC(Cc1ccc(F)cc1)C(=O)NC1CCN(c2nnnn2-c2ccccc2)CC1 (stereo not drawn) returned CHT PAM inactive.
Screening Cc1c(C(=O)OCc2ccc(F)cc2)sc2nc3n(c(=O)c12)CCC3 returned CHT PAM inactive.
COc1ccc(/C=C/C(=O)N(CC(C)C)C2CCS(=O)(=O)C2)cc1 (stereo not drawn) was read as CHT PAM inactive.
Screening Cc1nc2ccccc2n1CC(=O)N/N=C\C=C\c1ccccc1 returned CHT PAM inactive.

Source: PubChem BioAssay (Johns Hopkins Ion Channel Center)
